Screening data deposited in PubChem BioAssay by Broad Institute.
AF4-AF9 inh: MLL-AF4/AF9 protein interaction inhibition; AID 651704; inhibition, % at 10 µM; 350,000 tested, 0.47% active; AlphaScreen, biotin-AF4 peptide binding to FLAG-AF9; P42568;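 active = every replicate reaching a set inhibition limit, whatever the replicate mean, cut at about 25% in these data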;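 also: 0% = plate neutral control median and 100% = total signal loss; the record names both 10 and 1 µM as test concentration; the first replicate is given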
Target sequence (P42568 whole entry, looked up): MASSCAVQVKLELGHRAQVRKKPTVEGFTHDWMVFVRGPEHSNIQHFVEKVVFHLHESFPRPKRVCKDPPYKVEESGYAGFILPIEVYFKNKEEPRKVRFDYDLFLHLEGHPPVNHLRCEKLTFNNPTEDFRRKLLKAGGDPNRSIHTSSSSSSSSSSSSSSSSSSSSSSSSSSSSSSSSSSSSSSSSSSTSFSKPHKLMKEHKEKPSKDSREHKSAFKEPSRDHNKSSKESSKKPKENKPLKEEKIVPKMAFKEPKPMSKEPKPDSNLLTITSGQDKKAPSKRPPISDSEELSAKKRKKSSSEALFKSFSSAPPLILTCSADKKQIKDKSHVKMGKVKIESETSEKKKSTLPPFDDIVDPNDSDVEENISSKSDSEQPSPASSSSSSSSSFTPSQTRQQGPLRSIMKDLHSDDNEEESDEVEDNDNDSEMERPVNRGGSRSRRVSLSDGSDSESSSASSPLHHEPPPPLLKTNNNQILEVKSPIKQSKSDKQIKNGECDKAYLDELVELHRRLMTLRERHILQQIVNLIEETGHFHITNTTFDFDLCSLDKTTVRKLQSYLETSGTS
* marks the source's active call; other numbers are inactive results; & = joins results of further samples.

AF4-AF9 inh	Structure
-3.6	CO[C@H]1CN(C)C(=O)c2ccc(NC(=O)C3CC3)cc2OC[C@H](C)N(C(C)=O)C[C@@H]1C
-1.2	O=C(C[C@H]1C[C@H]2c3cc(NC(=O)Cc4ccncc4)ccc3O[C@H]2[C@H](CO)O1)NCc1ccccn1
1.0	CC(=O)NC[C@H]1[C@@H](c2ccc(C3=CCCC3)cc2)[C@@H](CO)N1C(=O)CN(C)C
1.3&6.5	COc1cc(CN2[C@@H]3CNC[C@H]2C3c2ccc(/C=C/c3ccccc3)cc2)cc(OC)c1 (some centres not stated)
-4.0	CCC(=O)N1[C@H](CO)[C@H](c2ccc(-c3ccncc3)cc2)[C@@H]1CN(C)C(C)=O
6.6	C[C@H](CO)N1C[C@H](C)[C@@H](CN(C)Cc2ccc(C(F)(F)F)cc2)Oc2ccc(NC(=O)Cn3cnnn3)cc2CC1=O
-1.9	CO[C@@H]1CN(C)C(=O)c2ccc(NC(=O)NC(C)C)cc2OC[C@@H](C)N(Cc2ccccn2)C[C@H]1C
1.0	CCCC#Cc1ccc([C@H]2[C@H]3CN(S(=O)(=O)Cc4ccccc4)CC(=O)N3[C@H]2CO)cc1
0.1	C[C@@H]1CCCCO[C@H](CN(C)Cc2ccc(C(F)(F)F)cc2)[C@@H](C)CN([C@H](C)CO)C(=O)c2cc(NS(=O)(=O)c3ccccc3)ccc2O1
0.8	COCCNC(=O)c1cc2c(c(-c3cccc(-c4ccc(C#N)cc4)c3)n1)[C@H](CCO)N(C(=O)CC1CC1)C2
-3.1	COc1ccccc1C(=O)Nc1ccc2c(c1)OC[C@@H](C)NC[C@H](C)[C@H](OC)CN(C)C2=O
-2.1	O=C(c1ccccn1)N1CC2(C1)[C@H](c1ccccc1)[C@@H](CO)N2C(=O)C1CCC1

Three entries from above, reformatted:
> CO[C@H]1CN(C)C(=O)c2ccc(NC(=O)C3CC3)cc2OC[C@H](C)N(C(C)=O)C[C@@H]1C
  AF4-AF9 inh: -3.6
> O=C(C[C@H]1C[C@H]2c3cc(NC(=O)Cc4ccncc4)ccc3O[C@H]2[C@H](CO)O1)NCc1ccccn1
  AF4-AF9 inh: -1.2
> CC(=O)NC[C@H]1[C@@H](c2ccc(C3=CCCC3)cc2)[C@@H](CO)N1C(=O)CN(C)C
  AF4-AF9 inh: 1.0

Further compounds follow.
AF4-AF9 inh	Structure
-2.3	CCCNC(=O)N1CC(=O)N2[C@@H](CO)[C@@H](c3ccc(C#Cc4ccc(F)cc4)cc3)[C@@H]2C1
0.1	CC(=O)Nc1ccc2c(c1)C(=O)N(C)[C@H]1CC[C@H](CC(=O)NCCCN3CCOCC3)O[C@H]1CO2
-3.0	O=C(C1CC1)N1CC(=O)N2[C@@H](CO)[C@@H](c3ccc(C#CCc4ccccc4)cc3)[C@@H]2C1
3.0	C[C@H](CO)N1C[C@H](C)[C@H](CN(C)CC2CC2)Oc2cc(C#Cc3ccc(F)cc3)ccc2S1(=O)=O
-0.5	CC=Cc1ccc2n(c1=O)C[C@H]1[C@H](CO)[C@@H](C(=O)N3CCC(Cc4ccccc4)CC3)N(CCC)[C@@H]21 (mixture of isomers)
-1.2	O=C(C[C@@H]1CC[C@@H](NC(=O)c2cccnc2)[C@H](CO)O1)NCc1ccncn1
-1.5	CCCC#Cc1ccc([C@H]2[C@H](CO)N3C(=O)CN(S(=O)(=O)c4ccccc4C)C[C@@H]23)cc1
0.0	CCCC#Cc1ccc([C@H]2[C@@H](CO)N(C(=O)NC(C)C)[C@@H]2CNC(C)=O)cc1
-5.6	CO[C@H]1CN(C)C(=O)c2ccc(NC(=O)C3CCOCC3)cc2OC[C@H](C)N(C)C[C@@H]1C
1.8	CCCC#Cc1ccc([C@H]2[C@@H](CO)N3C(=O)CN(C(=O)Nc4ccc(F)cc4)C[C@@H]23)cc1
-0.5	CC(C)NC(=O)N[C@@H]1CC[C@H](CC(=O)N2CCCCC2)O[C@@H]1CO
-8.3	O=C(Nc1ccccc1F)N1CC(=O)N2[C@H](C1)[C@@H](c1ccc(-c3cccnc3)cc1)[C@@H]2CO
-0.5	Cc1ccc(S(=O)(=O)N(C)C[C@@H]2OCCCC[C@H](C)Oc3ccc(NC(=O)CCC(F)(F)F)cc3C(=O)N([C@H](C)CO)C[C@@H]2C)cc1
-0.6	CCC(=O)Nc1ccc2c(c1)OC[C@@H](C)N(C(=O)c1cnccn1)C[C@@H](C)[C@H](OC)CN(C)C2=O
-2.1	CCS(=O)(=O)N1CCC2(CC1)CN(C(=O)c1cccc(F)c1)[C@@H](CO)c1c2c2ccc(OC)cc2n1C
-0.9	CC=Cc1ccc2n(c1=O)C[C@@H]1[C@@H](CO)[C@H](C(=O)Nc3ccccc3)N(CC)[C@H]21 (mixture of isomers)
0.6	CCCNC(=O)C[C@H]1C[C@@H]2c3cc(NC(=O)C4CCC4)ccc3O[C@@H]2[C@H](CO)O1
-13.8	CCCNC(=O)[C@H]1[C@H](CO)[C@H]2Cn3c(ccc(-c4cccc(OC)c4)c3=O)[C@@H]1N2CC
-0.5	C[C@H]1CN([C@@H](C)CO)C(=O)Cc2cc(NC(=O)C3CC3)ccc2O[C@H]1CN(C)Cc1ccc(C(=O)Nc2ccccc2N)cc1
-4.4	CN(C)C(=O)c1cccc(-c2ccccc2[C@@H]2[C@@H](CO)N(C(=O)C3CCC3)[C@H]2C#N)c1
0.2	C[C@@H]1CCCCO[C@@H](CN(C)Cc2ccc(C(=O)O)cc2)[C@@H](C)CN([C@@H](C)CO)C(=O)c2cc(NC(=O)Nc3ccc(F)cc3)ccc2O1
-11.5	N#C[C@@H]1[C@@H](c2ccc(C#CC3CCCC3)cc2)[C@@H](CO)N1C(=O)c1cccc(F)c1
0.1	O=C(C[C@@H]1CC[C@@H](NC(=O)C2CCOCC2)[C@H](CO)O1)NCC1CC1
-3.8	CCC(=O)N[C@H]1C[C@@H]2O[C@@H](CO)CC[C@@H]2O[C@@H]1CCc1ccc(-c2cccc(OC)c2)cc1
1.2	CC(C)C#Cc1ccc([C@@H]2[C@H]3CN(C(=O)NC4CCCCC4)CC(=O)N3[C@H]2CO)cc1
3.0	CC(C)CC#Cc1ccc2c(c1)O[C@@H](CN(C)C(=O)Cc1ccncc1)[C@H](C)CN([C@H](C)CO)S2(=O)=O
15.6	COc1ccc2c3c([nH]c2c1)[C@@H](CO)NCC31CN(Cc2cc(F)ccc2F)C1
4.0	COCC(=O)N1CC2(C1)[C@H](c1ccc(-c3ccc(C)cc3)cc1)[C@H](CO)N2C(C)=O
-4.2	C[C@@H]1CCCCO[C@H](CN(C)C(=O)Nc2ccccc2)[C@H](C)CN([C@@H](C)CO)C(=O)c2cc(NC(=O)Nc3cccc4ccccc34)ccc2O1
-0.8	CN(C)CC(=O)N1[C@@H](C#N)[C@H](c2ccccc2-c2ccc(C(=O)N(C)C)cc2)[C@@H]1CO
-0.9	CO[C@H]1CN(C)C(=O)c2ccc(NC(=O)c3ccc(F)cc3)cc2OC[C@@H](C)N(C)C[C@H]1C
-0.2	C[C@@H]1CCCCO[C@H](CN(C)Cc2ccccc2)[C@@H](C)CN([C@H](C)CO)C(=O)c2cc(NS(=O)(=O)c3ccc(F)cc3)ccc2O1
0.5	O=C([C@@H]1[C@@H](CO)[C@@H]2Cn3c(cccc3=O)[C@@H]2N1Cc1ccccn1)N1CCC(Cc2ccccc2)CC1
1.9	O=C1CN(Cc2ccccc2)C[C@H]2[C@H](c3ccc(-c4ccccc4F)cc3)[C@@H](CO)N12
-0.1&3.7	C[C@@H]1CN([C@H](C)CO)C(=O)c2cc(NS(=O)(=O)c3ccc(Cl)cc3)ccc2O[C@@H](C)CCCCO[C@@H]1CN(C)Cc1ccc2c(c1)OCO2
3.0	c1cc(-c2ccc(C3[C@H]4CNC[C@@H]3N4CC3CCOCC3)cc2)ccn1 (some centres not stated)
-0.2	Cc1noc(C)c1NC(=O)N(C)C[C@@H]1OCCCC[C@@H](C)Oc2ccc(NC(=O)c3ccccc3)cc2C(=O)N([C@@H](C)CO)C[C@H]1C
-3.2	COCC(=O)N1CC(=O)N2[C@H](CO)[C@@H](c3ccc(C#Cc4cccnc4)cc3)[C@@H]2C1
5.2	CN1c2ccc(-c3ccccc3F)cc2[C@@H]2[C@@H](CCN2S(=O)(=O)c2ccc(F)cc2)[C@@H]1CO
-5.8	CNC[C@H]1Oc2ccc(NC(=O)C3CC3)cc2CC(=O)N([C@@H](C)CO)C[C@H]1C
3.0	CCCC(=O)Nc1ccc2c(c1)C(=O)N(C)C[C@H](OC)[C@H](C)CN(C(=O)c1ccncc1)[C@@H](C)CO2
-1.1	CC(C)NC(=O)N[C@@H]1CC[C@H](CC(=O)N2CCCCC2)O[C@H]1CO
-4.1	Cc1ccc(S(=O)(=O)NC[C@H]2CC[C@@H]3[C@@H](CN3Cc3cc(-c4ccccc4)on3)O2)cc1
0.8	Cc1ccc(S(=O)(=O)Nc2ccc3c(c2)C(=O)N([C@H](C)CO)C[C@H](C)[C@@H](CN(C)C(=O)c2ccccc2)OCCCC[C@H](C)O3)cc1
-1.0	O=C(C[C@@H]1C[C@H]2c3cc(NC(=O)C4CCOCC4)ccc3O[C@H]2[C@@H](CO)O1)NC1CCCCC1
1.0	Cc1ccc(S(=O)(=O)N(C)C[C@H]2OCCCC[C@@H](C)Oc3ccc(NS(=O)(=O)c4ccc(F)cc4)cc3C(=O)N([C@@H](C)CO)C[C@H]2C)cc1
14.7	COc1ccc2c3c([nH]c2c1)[C@@H](CO)N(C(=O)CN(C)C)CC31CCN(Cc2cncnc2)CC1
0.6	C[C@H]1CCCCO[C@@H](CN(C)C)[C@@H](C)CN([C@@H](C)CO)C(=O)c2cc(NC(=O)C3CCCCC3)ccc2O1
-1.2	O=C(c1ccc(F)cc1)N1CC(=O)N2[C@@H](CO)[C@H](c3ccc(-c4ccccc4F)cc3)[C@@H]2C1
0.5	CCCC#Cc1ccc([C@H]2[C@@H](CO)N3C(=O)CN(C(=O)Nc4ccc(F)cc4)C[C@H]23)cc1
-0.5	O=C(C[C@H]1C[C@@H]2c3cc(NS(=O)(=O)c4ccc(F)cc4)ccc3O[C@@H]2[C@H](CO)O1)NCc1ccc(-c2ccccc2)cc1
-1.8	CC=Cc1ccc2n(c1=O)C[C@@H]1[C@@H](CO)[C@H](C(=O)NCC3CC3)N(C(C)=O)[C@H]21 (mixture of isomers)
0.8	O=C(Nc1cccc(Cl)c1)N1C[C@H]2[C@@H](c3ccccc31)[C@@H](CO)N2C(=O)c1cccnc1
-0.6&4.4	COc1cccc(-c2ccc(C3[C@@H]4CN(C(=O)C5CCCCC5)C[C@H]3N4)cc2)c1 (some centres not stated)
-2.4	COc1cccc(C#Cc2ccc([C@@H]3[C@H]4CN(C(=O)C5CC5)CC(=O)N4[C@H]3CO)cc2)c1
1.1	Cc1cccc(-c2ccc([C@@H]3[C@@H](CO)N4C(=O)CN(C(=O)Cc5ccccn5)C[C@H]34)cc2)c1
0.3	Cc1ccc(S(=O)(=O)NC[C@@H]2CC[C@H]3[C@H](CN3Cc3cc(-c4ccccc4)on3)O2)cc1
34.3*	O=C(C1CCCC1)N1CC[C@@H]2[C@H](CO)Nc3ccc(C4=CCCCC4)cc3[C@@H]21
4.4	COc1ccc(-c2ccc([C@@H]3[C@@H](CO)N4C(=O)CN(Cc5ccc(F)cc5)C[C@H]34)cc2)cc1
0.2	Cc1ccc(S(=O)(=O)N(C)C[C@@H]2OCCCC[C@H](C)Oc3ccc(NC(=O)CCC(F)(F)F)cc3C(=O)N([C@@H](C)CO)C[C@@H]2C)cc1

Carrying on.
AF4-AF9 inh	Structure
0.9	CN(C)C(=O)c1cccc(-c2ccccc2[C@@H]2[C@@H](C#N)N(C(=O)C3CCC3)[C@@H]2CO)c1
-1.5	CCCN1C[C@H](C)[C@@H](OC)CN(C)C(=O)c2ccc(NC(=O)C3CCOCC3)cc2OC[C@H]1C
-1.9	O=C(c1cccnc1)N1CC(=O)N2[C@@H](CO)[C@H](c3ccc(-c4ccc(F)cc4)cc3)[C@@H]2C1
-1.1	O=C(Nc1ccccc1F)N1CC(=O)N2[C@H](CO)[C@H](c3ccc(-c4ccccc4)cc3)[C@@H]2C1
1.4	CCCNC(=O)N1CC2(CCN(C(=O)COC)CC2)c2c(n(C)c3cc(OC)ccc23)[C@@H]1CO
10.1	Cc1ccc(S(=O)(=O)Nc2ccc3c(c2)C(=O)N([C@H](C)CO)C[C@@H](C)[C@H](CN(C)CC2CC2)OCCCC[C@@H](C)O3)cc1
0.4	CO[C@H]1CN(C)C(=O)c2ccc(NS(C)(=O)=O)cc2OC[C@H](C)N(CCC(F)(F)F)C[C@@H]1C
-6.7	CO[C@@H]1CN(C)C(=O)c2ccc(NC(=O)c3ccno3)cc2OC[C@@H](C)NC[C@@H]1C
-11.3	COc1ccc2c3c([nH]c2c1)[C@@H](CO)N(C)CC31CCN(S(=O)(=O)c2ccc(C)cc2)CC1
1.8	O=C(C1CCCC1)N1CC(=O)N2[C@H](CO)[C@@H](c3ccc(C#CCc4ccccc4)cc3)[C@@H]2C1
-4.6	CC=Cc1ccc2n(c1=O)C[C@@H]1[C@@H](CO)[C@H](C(=O)NCCc3ccncc3)[C@H]2N1CCc1ccccc1 (mixture of isomers)
-6.5	CCCNC(=O)N1CC2(C1)CN(Cc1ccc(F)cc1)[C@@H](CO)c1[nH]c3cc(OC)ccc3c12

Some of the entries so far, with each value named.
molecule: Cc1ccc(S(=O)(=O)Nc2ccc3c(c2)C(=O)N([C@H](C)CO)C[C@@H](C)[C@H](CN(C)CC2CC2)OCCCC[C@@H](C)O3)cc1
  AF4-AF9 inh = 10.1

molecule: COc1ccc2c3c([nH]c2c1)[C@@H](CO)N(C)CC31CCN(S(=O)(=O)c2ccc(C)cc2)CC1
  AF4-AF9 inh = -11.3

molecule: CO[C@@H]1CN(C)C(=O)c2ccc(NC(=O)c3ccno3)cc2OC[C@@H](C)NC[C@@H]1C
  AF4-AF9 inh = -6.7

Only part of the results is shown (hit frequency here may not be typical).
